StopGo reporter = High Throughput Screening for Foot and Mouth Disease Virus Antivirals | Potency, µM (top dose mostly 57.9 µM), inactives show at the top dose signal change, negative = less light | 410,000 compounds, 1.2% hits | AID 1159524, 2015 | human cells with a luciferase reporter of 2A StopGo recoding; control for the full effect not named in the record; active = well fitted falling curve with a large enough effect; inconclusive = small, poorly fitted or top-dose-only effect; inactive = no such curve, though single readings can be large or run the other way; tested in HEK293T cells; note: % is set by controls: 0 for no effect and ±100 for the full control effect; nearly all actives have a fitted effect of over 45% in size; luciferase light after 4 h
Lassa entry inh = qHTS for Inhibitors of binding or entry into cells for Lassa Virus; AID 540256, 2011; Potency, µM (highest dose often 37.9 µM), for the others: top-dose activity change, negative = inhibition, usual class: inhibitors; Lassa virus pseudotype entry inhibition, cell reporter; control for the full effect not named in the record; 300,000 compounds, 1.2% hits; active means well fitted inhibition curve with a large enough effect; inconclusive means small, poorly fitted or top-dose-only effect, or effect the other way; inactive means flat fitted curve, though single readings scatter; tested in HEK293 cells; note: % is set by controls: 0 for no effect and ±100 for the full control effect; nearly all actives have a fitted effect of over 50% in size; luciferase read-out
MARV entry inh = qHTS for inhibitors of binding or entry into cells for Marburg Virus. Marburg virus pseudotyped entry inhibition, cell reporter; control for the full effect not named in the record; about a third of the inactives were read at about 46 µM. Potency, µM (series often up to 37.8 µM), inactives show at the highest dose activity change, negative = inhibition, actives largely listed as inhibitors. 300,000 compounds, 1.8% hits; active = well fitted inhibition curve with a large enough effect; inconclusive = small, poorly fitted or top-dose-only effect, or effect the other way; inactive = flat fitted curve, though single readings scatter; tested in HEK293 cells; about a fifth of its hits are not listed in these tables; note: % is set by controls: 0 for no effect and ±100 for the full control effect; luciferase read-out
NS1 inh = qHTS Assay for Inhibitors of Influenza NS1 Protein Function | S. cerevisiae slowed by influenza A NS1, growth recovery by OD600 | AID 2326, 2010 | 270,000 compounds, 0.4% hits | Potency, µM (doses to about 46.1 µM), inactives show top-dose activity, positive = more growth; active means well fitted rising curve with a large enough effect; inconclusive means small, poorly fitted or top-dose-only effect; inactive means no such curve, though single readings can be large or run the other way; note: nearly all actives have a fitted effect of over 50% in size
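Growth recovery, yeast-based: influenza A NS1 expressed in S. cerevisiae causes slow growth, and suppressors are detected by OD600. The parent strain without NS1 is used as positive control.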
RE007 growth inh = qHTS Assay for Inhibitors of the HIV-1 protein Vpr | S. pombe RE007 Vpr strain, BacTiter-Glo ATP luminescence, 24 h; control for the full effect not named in the record | Potency, µM (series often up to 92.2 µM), for inactives: top-dose activity change, negative = less growth | 360,000 compounds, 0.21% hits | AID 651644, 2012; active = well fitted falling curve with a large enough effect; inconclusive = small, poorly fitted or top-dose-only effect; inactive = no such curve, though single readings can be large or run the other way;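 note: % is set by controls: 0 for no effect and ±100 for the full control effect; nearly all actives have a fitted effect of over 50% in size; the assay follows cell death caused by Vpr and the record does not say whether a fall means rescue or toxicity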
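Fission yeast RE007 carrying one integrated HIV-1 vpr copy, seeded at OD 0.01 in PMG+AL medium with 23 nL pinned compound. Grown 24 h at 30 degrees; viability read by BacTiter-Glo luminescence after 5 min.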
Cruzain inh Det = qHTS Assay for Promiscuous and Specific Inhibitors of Cruzain (with detergent); Cruzipain (Trypanosoma cruzi), P25779; purified cruzain, Z-FR-AMC fluorescence, 0.01% Triton; Potency, µM, for the others: max response, negative = inhibition, usual class: inhibitors; 200,000 compounds, 0.43% hits; AID 1478, 2009;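 note: plate controls were neutral wells for no effect and buffer without enzyme for full effect; nearly all actives have a fitted effect of over 40% in size; top concentration of the series not given in the record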
Target sequence (P25779 123-467 limits assumed): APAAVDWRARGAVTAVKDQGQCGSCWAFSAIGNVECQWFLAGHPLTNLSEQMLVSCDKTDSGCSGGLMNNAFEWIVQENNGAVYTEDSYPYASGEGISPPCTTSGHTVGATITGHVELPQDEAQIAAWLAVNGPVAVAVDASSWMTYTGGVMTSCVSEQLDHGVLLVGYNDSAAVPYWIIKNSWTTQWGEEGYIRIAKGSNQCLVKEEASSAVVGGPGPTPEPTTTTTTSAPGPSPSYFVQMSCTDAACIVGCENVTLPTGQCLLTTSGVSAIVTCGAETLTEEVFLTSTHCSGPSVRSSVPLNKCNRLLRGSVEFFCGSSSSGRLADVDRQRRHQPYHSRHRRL
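Cruzain (1.5 nM) preincubated 15 min at RT with compound in 100 mM sodium acetate pH 5.5, 5 mM DTT, 0.01% Triton X-100. Reaction started with 2 uM Z-FR-AMC; AMC fluorescence (ex 360/em 450 nm) change over 60 s gave rate.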
SARS PLpro yeast = qHTS of Yeast-based Assay for SARS-CoV PLP; S. cerevisiae expressing SARS-CoV PLpro, growth rescue; control for the full effect not named in the record; Potency, µM (titrated, usually from 32.9 µM), for inactives: at the top dose activity, positive = growth rescue; 330,000 compounds, 0.19% hits; AID 485353, 2010; active means well fitted rising curve with a large enough effect; inconclusive means small, poorly fitted or top-dose-only effect; inactive means no such curve, though single readings can be large or run the other way; note: 0% is about no effect; nearly all actives have a fitted effect of over 55% in size; growth read by luminescence after 48 h
Cruzain noTriton = qHTS Assay for Promiscuous and Specific Inhibitors of Cruzain (without detergent). Cruzipain (Trypanosoma cruzi), P25779. purified cruzain, Z-FR-AMC fluorescence, no detergent. Potency, µM, inactives show max response, negative = inhibition, usual class: inhibitors. 200,000 compounds, 2.3% hits;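 note: plate controls were enzyme without inhibitor for no effect and buffer without enzyme for full effect; nearly all actives have a fitted effect of over 40% in size; top concentration of the series not given in the record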
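Detergent-free condition (0.00005% Triton X-100) in acetate buffer pH 5.5 with DTT. 1.5 nM enzyme and compound were pre-mixed 15 min, then 2 uM Z-FR-AMC substrate added; reaction progress from fluorescence change between first and third reads (60 s).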
Starred values were filed as active, the others as inactive; ? = inconclusive; nt = no result given; & = joins results of further samples; [ ] = another dose, or the depositor's remark. Unless noted, calls come from the whole dose curve; as a rule, active = well fitted curve in the direction sought with a large enough effect; inconclusive = small, poorly fitted or top-dose-only effect, or another doubt; inactive = no such curve, though single readings can be large; an effect the other way counts as inactive or inconclusive. Potency is the fitted concentration of half-maximal effect.

no. | mol | SARS PLpro yeast | Lassa entry inh | RE007 growth inh | NS1 inh | Cruzain noTriton | Cruzain inh Det | StopGo reporter | MARV entry inh
1 | CCN(CC)C(=O)c1ccc(NC(=O)COc2ccc([N+](=O)[O-])cc2Cl)cc1 | 5% | 3% | 16% | 5% | -4% | -6.5% | -24% | ?
2 | Clc1nccc2c1ccc1ccccc12 | nt | -15% | nt | -18% | -9% | -8.5% | nt | 15%&-15%&-15%&-15%
3 | CCC(CC)C(=O)NC12CC3CC(CC(C3)C1)C2 | 0% | 0% | 24% | 8% | ? | 7.2% | -6% | 6%
4 | Cc1ccc(NC(=S)Nc2ccc3cn[nH]c3c2)c(C)c1 | 1% | 6% | 2% | nt | nt | nt | 22% | 5%[46.1 µM]
5 | Clc1ccc(-c2nn3c(-c4ccccn4)nnc3s2)c(Cl)c1 | -3% | nt | nt | -60% | -16% | -1.4% | nt | -1%
6 | CCNC(=S)N(CCc1c(C)[nH]c2ccc(OC)cc12)Cc1cccnc1 | 0% | 5%[46.1 µM] | 2% | 4% | nt | nt | 26% | 7%[46.1 µM]
7 | COc1ccc(-c2cc3ccc(O)c(CN4CCCC4)c3oc2=O)cc1 | nt | 2%[46.1 µM] | nt | nt | ? | -11% | 28% | nt
8 | CC(c1ccccc1)C(CC(=O)O)C(=O)NC1CCCCC1 (stereo not given) | 1% | nt | 10% | ? | -2% | 6.5% | -24% | 0%
9 | Cn1c(CSc2nc3ccccc3s2)nnc1SCC(=O)NCCN1CCOCC1 | nt | -2% | -7% | 5% | -1% | -0.9% | nt | 0%
10 | O=C1c2ccccc2-c2onc3ccc(NCc4ccco4)c1c23 | -12% | -24% | 28µM* | -111% | 7% | -11% | ? | ?
11 | COc1cccc(CNS(=O)(=O)c2cc3c(cc2C)n(C)c(=O)c(=O)n3C)c1 | 3% | 9%[46.1 µM] | 12% | -1% | nt | nt | -2%&-10% | nt
12 | CCOC(=O)c1ccc(N2C(=O)c3n[nH]c(C)c3C2c2ccc(C(C)C)cc2)cc1 (stereo not given) | nt | ? | nt | nt | 5% | -2.3% | -24% | 5%[46.1 µM]
13 | O=C(O)c1ccc2c(c1)ncn2C1CCCCCC1 | -1% | 2% | -5% | 0% | nt | nt | 7% | 10%
14 | COc1ccc(-c2cc(OC(=O)c3ccc(F)cc3)c3c(C)oc(C)c3c(=O)c2)cc1OC | nt | 8%[46.1 µM] | nt | nt | 7% | -8.7% | -16% | ?
15 | Cc1c(/C=C2\SC(=O)N(CC(=O)Nc3ccc4c(c3)OCO4)C2=O)c2ccccc2n1C | -4% | 14% | 17% | 11% | ? | -5.7% | nt | ?
16 | COc1cc(NC(=S)Nc2ccc(N(C)C(C)=O)cc2)cc(OC)c1 | -2% | 6% | -2% | 3% | nt | nt | 2% | 2%[46.1 µM]
17 | Cc1ccc(S(=O)(=O)NNC(=S)Nc2cccc(C)c2C)cc1 | 0% | nt | 11% | -8% | nt | nt | -10% | nt
18 | c1coc(-c2nnc(-c3cccs3)o2)c1 | -9% | ? | -11% | -15% | -1% | -3.3% | 18% | -3%
19 | N/C(=N\OC(=O)c1ccc([N+](=O)[O-])cc1Cl)c1ccccn1 | -5% | nt | -1% | -19% | nt | nt | 16µM* | ?
20 | CCN1CCN(c2ccc(S(=O)(=O)N3CCOCC3)cc2N)CC1 | -1% | -8% | 10% | nt | nt | nt | -9% | 21%
21 | C=C1C(=O)O[C@H]2C[C@@H](C)[C@@H]3C=CC(=O)[C@@]3(C)C[C@H]12 | -1% | nt | -18% | -3% | nt | nt | 25µM* | nt
22 | O=C1CC2(CCN1)CCN(Cc1ccccc1)CC2 | nt | -1% | 2% | nt | nt | nt | -16% | 30%
23 | Cc1csc(N(C(=O)CCNC(=O)c2ccc([N+](=O)[O-])cc2)c2ccccc2)n1 | 21% | -3% | 11% | 0% | -3% | -3.0% | -22% | -13%
24 | Cc1cc(C(=O)NNC(=O)Nc2cccc(C(F)(F)F)c2)no1 | -1% | 5% | 1% | 2% | nt | nt | -1% | -1%[46.1 µM]
25 | O=C1CNC(=O)c2c(nc3n2CCC3)N1 | -1% | -10% | -6% | 7% | -2% | 0.4% | -6% | 14%
26 | COc1nccnc1NS(=O)(=O)c1ccc(NC(=S)NC(=O)c2ccccc2F)cc1 | -3% | ? | -15% | 16% | 0% | -12% | 52%[activator] | ?
27 | O=C(Nc1cccnc1)c1ccc(Cl)cc1[N+](=O)[O-] | 0% | 14% | 10% | nt | nt | nt | -6% | ?
28 | COC(=O)c1cc2sccc2n1CC(=O)N1CCCc2ccccc21 | -6% | 0% | -4% | -12% | 0% | -4.3% | -9% | -8%
29 | CC(=O)OC1CCC2C3CCC4=C(CC(F)C(=O)C4)C3CCC12C (stereo not given) | nt | ? | 5% | nt | nt | nt | ? | -3%
30 | Cc1ccc(-n2[nH]c(=O)c(-c3ccccn3)c2C)cc1 | -1% | ? | -15% | -4% | nt | nt | 7.1µM* | ?
31 | C=CCn1c(SCC#N)nc2sc(CC)cc2c1=O | -2% | -26%[46.1 µM] | 4% | nt | nt | nt | 6% | 24%[46.1 µM]
32 | Cc1csc(SCc2nnc(-c3ccc(Cl)cc3)o2)n1 | -15% | 10% | 5% | -17% | -22% | -0.8% | 16% | ?
33 | Cc1ccc2nc(SCC(=O)Nc3ccc4[nH]c(=O)[nH]c4c3)[nH]c2c1 | -3% | 20% | -5% | nt | nt | nt | -9% | -2%
34 | O=C(NC(c1ccccc1)c1ccccc1)C1CCCC1 | 22% | 3% | nt | 1% | -10% | -2.9% | -4% | 4%
35 | Cc1onc(-c2ccccc2Cl)c1C(=O)N1CCC(C(N)=O)CC1 | 0% | 15%[46.1 µM] | 8% | 16% | nt | nt | 20% | 10%[46.1 µM]
36 | O=C1CCN(C(=S)NCCc2ccccc2)CC1 | 0% | 5% | -2% | nt | nt | nt | 28% | ?
37 | O=C(NCc1ccccc1)NCC12CC3CC(CC(C3)C1)C2 | 0% | ? | 9% | -3% | nt | nt | -19% | 1%[46.1 µM]
38 | Cc1ccc(C(=O)Nc2cccc(C(F)(F)F)c2)cc1NC(=O)c1csc(-c2ccncc2)n1 | 1% | nt | 8%&-9% | 13% | nt | nt | ? | nt
39 | Cc1c(-c2ccccc2)oc2c(C(=O)N3CCN(c4ccccc4F)CC3)cccc2c1=O | -8% | 3% | 1% | -3% | 11% | -9.0% | 12% | ?
40 | C/C(CCC(C)C)=N\Nc1cc(C)c2ccccc2n1 | 2% | 1% | 9% | nt | nt | nt | 24% | ?
41 | Cn1c(=O)c2c(ncn2CC(=O)N/N=C/c2cn[nH]c2-c2ccc(F)cc2)n(C)c1=O | -1% | 13% | 3% | nt | nt | nt | -14% | ?
42 | CCn1c(COc2ccc(C)cc2)nnc1SCC(=O)C(C)(C)C | -1% | -19% | -9% | -104% | 16% | 4.3% | -29% | -32%
43 | COC(=O)CSc1nnc(-c2cccnc2)n1-c1cccc(OC)c1 | -2% | 2% | -14% | -7% | -12% | 1.3% | nt | 1%
44 | COC(=O)c1ccc(OCC2c3cc(OC)c(OC)cc3CCN2C(C)=O)cc1 (stereo not given) | 0% | ? | -14% | nt | nt | nt | ? | -25%
45 | Cc1ccc(S(=O)(=O)C(C#N)c2nc3ccccc3nc2N2CCCC2)cc1C (stereo not given) | -23% | 3% | -25% | -44% | 5% | -8.1% | 13% | -9%
46 | Cc1c(Cl)cccc1NC(=O)CSCc1cc(=O)[nH][nH]1 | 2% | 4% | 3% | ? | -8% | 3.2% | -10% | -28%
47 | CCCCn1c(O)c(C(CC)=NCc2cc(OC)cc(OC)c2)c(=O)[nH]c1=O | 7% | ? | -1% | -50% | 29% | -6.5% | ? | -2%
48 | COc1ccc(S(=O)(=O)N2CCC(C(=O)N[C@@H](C)C(=O)NCc3ccncc3)CC2)cc1 | 1% | nt | 5% | -6% | nt | nt | -7% | nt
49 | CCN1C(C)=C(C)S/C1=C1\SC(=S)N(N)C1=O | 1% | 2% | -8% | 8% | nt | nt | 3% | 3%[46.1 µM]
50 | CC1=C(C)CS(=O)N(c2ccc(S(N)(=O)=O)cc2)C1 (stereo not given) | 2% | ? | 2% | 6% | 16µM* | 16µM* | -14% | 1%
51 | O=C(CSc1ccccc1)Nc1cccnc1 | 4% | -1% | 5% | -4% | -6% | 4.0% | 6% | ?
52 | CC(C)(C)c1ccc(COn2ccnc2)cc1 | -1% | 7% | 24% | -41% | nt | nt | 2% | 3%
